GIRK2 act: activators of human GIRK2 potassium channels; P48051; HEK293-GIRK2 thallium flux, Thallos fluorescence; calls only for hits at 25 µM; 63,000 tested, 0.05% active; AID 1259325;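 active = among the strongest 0.2% of first-round signals and kept after retests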;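 also: first round at about 10 µM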
Target sequence (P48051 whole entry, looked up): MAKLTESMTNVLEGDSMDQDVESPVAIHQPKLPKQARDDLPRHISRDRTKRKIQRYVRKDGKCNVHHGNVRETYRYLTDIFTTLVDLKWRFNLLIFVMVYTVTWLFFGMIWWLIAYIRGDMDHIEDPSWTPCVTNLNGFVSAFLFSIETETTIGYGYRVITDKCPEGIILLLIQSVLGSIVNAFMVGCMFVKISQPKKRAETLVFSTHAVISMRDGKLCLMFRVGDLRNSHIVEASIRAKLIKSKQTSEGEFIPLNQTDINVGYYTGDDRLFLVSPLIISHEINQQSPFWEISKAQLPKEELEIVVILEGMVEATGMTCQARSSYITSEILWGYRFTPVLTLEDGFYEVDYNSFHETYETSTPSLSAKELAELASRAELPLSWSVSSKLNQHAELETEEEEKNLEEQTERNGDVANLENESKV
Calls only; i = inactive.

SMILES | GIRK2 act
CCOC(=O)c1ccc(NC(=O)Cn2ccn3nc(-c4ccccc4)cc3c2=O)cc1 | i
O=C(NCCCn1ccnc1-c1ccccc1)c1cccs1 | i
CCSc1ccccc1C(=O)NCC1CCN(Cc2ccsc2)CC1 | i
O=C(NCc1ccc(C(O)c2cccs2)s1)c1cccc(C(F)(F)F)c1 (centres undefined) | i
COC(=O)c1ccc(S(=O)(=O)NCC2CCN(S(=O)(=O)C3CC3)CC2)cc1 | i
O=C(CCCSc1ccc(NC(=O)c2ccco2)nn1)Nc1ccc2c(c1)OCCO2 | i
CN(CC(=O)Nc1nc2ccc(S(C)(=O)=O)cc2s1)c1nc2c(Cl)cccc2s1 | i
CCCCC/C=C\C/C=C\CCCCCCCC(=O)OCC(COC(=O)CCCCCCCCCCCCCCC)OC(=O)CCCCCCC/C=C\CCCCCCCC (centres undefined) | i
O=C(c1ccccc1Br)N1CCN(c2ncnc3c2nnn3-c2ccc(F)cc2)CC1 | i
COc1cccc(CNC(=O)c2cc(-c3ccccc3)nc3c2c(C)nn3C2CCS(=O)(=O)C2)c1 (centres undefined) | i
CCCN1C(=O)COc2ccc(-c3csc(NC(=O)C(CC)CC)n3)cc21 | i
COc1ccccc1CCNC(=O)CSc1cc(C(C)C)ncn1 | i
CS(=O)(=O)N1CCc2nc(NC(=O)c3cc(-c4ccc(F)cc4)n[nH]3)sc2C1 | i
Cc1noc(C)c1S(=O)(=O)N1CCCC(c2nnc(-c3ccc4c(c3)OCO4)o2)C1 (centres undefined) | i
COc1cc(Br)cc2cc(C(=O)NCc3ccco3)c(=O)oc12 | i
O=C(NCc1nc2ccccc2[nH]1)c1csc(-c2cc3ccccc3[nH]2)n1 | i
Cc1ccc(-n2nnc(C(=O)NCCc3cccs3)c2-c2cccnc2)cc1 | i
COc1ccc(/C=C/C(=O)c2ccc(Br)cc2)c(OC)c1 | i
O=C(/C=C/c1ccccc1Cl)N1CCN(C(=O)C2CC2c2ccccc2)CC1 (centres undefined) | i
CCc1ccc(/C=C/C(=O)N2CCc3cc(S(=O)(=O)N(C)C)ccc32)cc1 | i
O=C(C1CC=CCC1)N(Cc1ccsc1)Cc1ccco1 (centres undefined) | i
Cc1nc(NCCNS(=O)(=O)c2cccs2)cc(-n2ccnc2C)n1 | i
COc1ccc(OCCC(=O)Nc2nc(C3CCCCC3)cs2)cc1 | i
COc1ccc(-c2ccc(C(=O)Nc3ccccc3OC)o2)c([N+](=O)[O-])c1 | i
O=C(N(CCc1cccs1)C1CC1)C1(c2ccccc2)CCOCC1 | i
CNC(=O)C1CCC(Cn2c(=O)c3sccc3n(CC(=O)NC3CCCCC3)c2=O)CC1 (centres undefined) | i
COc1cc(NC(=O)Nc2nc(-c3ccc(Cl)s3)cs2)cc(OC)c1OC | i
COc1coc(C(=O)N2CCCc3ccccc32)cc1=O | i
Cc1cc(C(F)(F)F)nc(CCNC(=O)Nc2ccc3c(c2)OCO3)n1 | i
COc1ccc(-c2noc(C3CC(=O)N(c4ccc5c(c4)OCCO5)C3)n2)cc1 (centres undefined) | i
O=C(c1ccc(=O)[nH]c1)N1CCC(c2nnc(-c3ccc(F)cc3)o2)CC1 | i
COc1cccc(C(=O)N2CCN(c3nc4c(S(C)(=O)=O)cccc4s3)CC2)c1 | i
COc1ccc(C2CC(c3ccccc3NS(C)(=O)=O)=NN2C(C)=O)cc1 (centres undefined) | i
COC(=O)c1sc2ccccc2c1NC(=O)C1CCN(S(=O)(=O)c2ccc(Cl)cc2)CC1 | i
CCOCC(=O)NCC1(O)CCOc2ccccc21 (centres undefined) | i
Cc1cn2c3c(=O)[nH]c(=O)n(C)c3nc2n1CCN1CCN(Cc2ccccc2)CC1 | i
COC1CCN(S(=O)(=O)c2cccc(Cl)c2C)CC1 | i
O=C(Nc1cc(N2CCN(c3ccccc3)CC2)ncn1)c1csc(-c2ccccc2)n1 | i
CCCc1nnsc1C(=O)Nc1nc(-c2cc([N+](=O)[O-])cs2)cs1 | i
Cc1cc(C)c(S(=O)(=O)NCc2ccccc2)cc1N(C)S(=O)(=O)c1ccc(Cl)cc1 | i
O=C(C1CC1)N1CCC(Oc2nc3c(Cl)cccc3s2)CC1 | i
Cc1ccc(Cl)cc1NC(=O)Cn1cnc2c(-c3ccc(F)cc3)csc2c1=O | i
COc1ccc(C(=O)Nc2ccc(C)c(Cl)c2)nn1 | i
COc1cc(N=Cc2c(O)c3ccccc3oc2=O)cc(OC)c1 | i
O=C(NCc1ccccc1C(F)(F)F)c1nnn(-c2ccc(Cl)cc2)c1-c1cccnc1 | i
Cc1cn2c3c(=O)n(CCCO)c(=O)n(C)c3nc2n1C(C)C | i
COc1ccc(/C=C2\Oc3c(ccc(OC(=O)N4CCOCC4)c3C)C2=O)cc1 | i
COc1cccc(CN2COc3ccc4c(=O)c(-c5ccccc5)coc4c3C2)c1 | i
O=C(c1ccccc1)N1CCCc2ccc(NS(=O)(=O)c3ccccc3)cc21 | i
COc1ccc(Cl)c2sc(N(CC3CCCO3)C(C)=O)nc12 (centres undefined) | i
O=C(NCCc1cccs1)C1CCN(c2nc3ccsc3c(=O)n2Cc2ccc(F)cc2)CC1 | i
CC(C)(C)NC(=O)CN1CCC(c2cccs2)CC1 | i
CCSc1nnc(NC(=O)c2ccc(OCc3nc(-c4ccco4)cs3)cc2)s1 | i
COc1ccc(NC(=O)C2CCN(c3cc(Oc4ccccc4)ncn3)CC2)cc1 | i
O=S(=O)(Cc1ccccc1)NCCCN1CCN(c2ccccc2)CC1 | i
Cc1nc(-c2ccccn2)cc2nn(CC(=O)Nc3ccc(Cl)cc3)c(=O)n12 | i
O=S(=O)(c1cccs1)N1CCC2(CCc3ccccc3O2)CC1 | i
O=C(CCOc1ccccc1)Nc1nnc(-c2ccsc2)o1 | i
O=C(CN1C(=O)CCC1=O)NCC#CCOc1ccc2c(c1)OCO2 | i
N#Cc1nc(-c2cccc(Cl)c2)oc1N1CCN(C(=O)c2ccccc2Cl)CC1 | i
The listing continues.
SMILES | GIRK2 act
O=C(Cc1cccs1)NCCn1ncc2c(N3CCN(c4ncccn4)CC3)ncnc21 | i
O=C(CNC(=O)c1c[nH]c2ccccc12)NCCc1cccs1 | i
CC(C)CCCC(C)C1CCC2C3CC(=O)C4(O)C[C@@H](O)CC[C@]4(C)C3CC[C@]12C (some centres undefined) | i
C=CCn1c(SCC(=O)NCC2CCCO2)nc2scc(-c3ccc(C)o3)c2c1=O (centres undefined) | i
Cc1nc(-c2ccc(N3CCN(C(=O)C4CCC(=O)N4)CC3)nc2)no1 (centres undefined) | i
O=c1c(Oc2ccc(F)cc2F)cc2cnc(NC3CCOCC3)nc2n1C1CCS(=O)(=O)CC1 | i
COCCn1c(C(=O)NCC(=O)c2ccccc2)cc2c(=O)n(C)c(=O)n(C)c21 | i
Cc1nc2sc(C(c3ccccc3F)N3CCN(C)CC3)c(O)n2n1 (centres undefined) | i
Cc1cc(C(=O)NCC2(O)CCc3ccccc3C2)c(C)o1 (centres undefined) | i
CSc1ccc(CNC(=O)Cn2nc3c(Oc4ccccc4)nccn3c2=O)cc1 | i
CCCC/C=C/C=C1/C(=O)C=C[C@@H]1C/C=C\CCCC(=O)O | i
CN1CCOc2ccc(NC(=O)CSc3ccc(F)cc3)cc2C1=O | i
COC(=O)c1ccc(Cl)c(NC(=O)NC2CCCCC2)c1 | i
CC(C)c1nc2ccccc2n1CCOc1ccccc1 | i
CC(C)Oc1ccc(NC(=O)c2ccccc2Br)cc1 | i

Reprinted from the part before: two compounds, then new ones.
SMILES | GIRK2 act
CC(C)c1nc2ccccc2n1CCOc1ccccc1 | i
CC(C)Oc1ccc(NC(=O)c2ccccc2Br)cc1 | i
Cc1ccc(C)c(S(=O)(=O)N2C(=S)NC(=O)C2C)c1 (centres undefined) | i
C=CCN1CC(c2nc3ccccc3n2Cc2c(C)c(C)cc(C)c2C)CC1=O (centres undefined) | i
COC[C@H](N=C1NC(=O)/C(=C/c2ccc3ncccc3c2)S1)c1ccccc1 | i
CCc1ccc(S(=O)(=O)c2cnc(SCC(=O)Nc3ccc4c(c3)OCCO4)[nH]c2=O)cc1 | i
CCOc1ccccc1C(=O)NNC(=O)c1ccc(=O)n(Cc2ccc(Cl)cc2)c1 | i
COc1ccc(S(=O)(=O)Nc2ccc3c(c2)N(S(=O)(=O)c2ccccc2)CCC3)c(OC)c1 | i
CCCn1c(=O)c2cc(Cl)ccc2n2c(SCC(=O)NCc3cccc(OC)c3)nnc12 | i
Cc1[nH]nc(-c2ccc(OCCN3CCC(C(N)=O)CC3)cc2O)c1-c1ccc(Br)cc1 | i
O=S(=O)(Cc1ccc(C(F)(F)F)cc1)NCC1CCN(S(=O)(=O)C2CC2)CC1 | i
COc1ccc(OC)c(-n2nnc(-c3nc(-c4ccc(OC)c(OC)c4)no3)c2C)c1 | i
O=S(=O)(c1ccc(Cl)s1)N1CC(Oc2nc3ccccc3s2)C1 | i
Cc1noc(C)c1S(=O)(=O)NCCn1ncc2c(NCc3ccc(F)cc3)ncnc21 | i
CNc1nn(CC(=O)N2CCN(c3ccccc3OC)CC2)c(N)c1-c1nc(-c2ccccc2)no1 | i
O=C(NCCC(O)c1ccoc1)c1cccc(Br)c1 (centres undefined) | i
COc1ccc(OC)c(C2c3c(oc4ccccc4c3=O)C(=O)N2C)c1 (centres undefined) | i

17 compounds out of the list, arranged by length of the SMILES, smallest number first:
SMILES | GIRK2 act
CC(C)c1nc2ccccc2n1CCOc1ccccc1 | i
O=C(NCCC(O)c1ccoc1)c1cccc(Br)c1 (centres undefined) | i
CC(C)Oc1ccc(NC(=O)c2ccccc2Br)cc1 | i
COC(=O)c1ccc(Cl)c(NC(=O)NC2CCCCC2)c1 | i
Cc1ccc(C)c(S(=O)(=O)N2C(=S)NC(=O)C2C)c1 (centres undefined) | i
O=S(=O)(c1ccc(Cl)s1)N1CC(Oc2nc3ccccc3s2)C1 | i
COc1ccc(OC)c(C2c3c(oc4ccccc4c3=O)C(=O)N2C)c1 (centres undefined) | i
CSc1ccc(CNC(=O)Cn2nc3c(Oc4ccccc4)nccn3c2=O)cc1 | i
C=CCN1CC(c2nc3ccccc3n2Cc2c(C)c(C)cc(C)c2C)CC1=O (centres undefined) | i
CCOc1ccccc1C(=O)NNC(=O)c1ccc(=O)n(Cc2ccc(Cl)cc2)c1 | i
COC[C@H](N=C1NC(=O)/C(=C/c2ccc3ncccc3c2)S1)c1ccccc1 | i
CCCn1c(=O)c2cc(Cl)ccc2n2c(SCC(=O)NCc3cccc(OC)c3)nnc12 | i
COc1ccc(OC)c(-n2nnc(-c3nc(-c4ccc(OC)c(OC)c4)no3)c2C)c1 | i
Cc1[nH]nc(-c2ccc(OCCN3CCC(C(N)=O)CC3)cc2O)c1-c1ccc(Br)cc1 | i
CNc1nn(CC(=O)N2CCN(c3ccccc3OC)CC2)c(N)c1-c1nc(-c2ccccc2)no1 | i
CCc1ccc(S(=O)(=O)c2cnc(SCC(=O)Nc3ccc4c(c3)OCCO4)[nH]c2=O)cc1 | i
COc1ccc(S(=O)(=O)Nc2ccc3c(c2)N(S(=O)(=O)c2ccccc2)CCC3)c(OC)c1 | i

Other compounds follow:
SMILES | GIRK2 act
CCOc1ccc(-c2csc(-n3nc(C)cc3NC(=O)c3ccco3)n2)cc1 | i
CC(=O)c1ccc(N2CCN(C(=O)Cn3cnc4c([nH]c5ccc(C)cc54)c3=O)CC2)cc1 | i
CCOC(=O)CN1CCN(c2nc3c(c(=O)[nH]c(=O)n3C)n2Cc2cccc3ccccc23)CC1 | i
COc1cccc2c(SCC(=O)N3CCCC3)nccc12 | i
COc1ccc(OC)c(NC(=O)Cn2nc3c4cc(-c5ccc(C)c(C)c5)nn4ccn3c2=O)c1 | i
COc1cccc(NC(=O)CSc2ccc(-c3nc(-c4ccccc4)no3)cn2)c1 | i
COc1ccc(-n2ccnc(NC(=O)NCCc3ccccc3)c2=O)cc1Cl | i
CSC1=NCCN1S(=O)(=O)c1ccc(F)cc1 | i
COc1ccc(Cl)cc1NC(=O)CCCn1c(=O)[nH]c2cc3c(cc2c1=O)OCO3 | i
O=C(Nc1c(F)cccc1F)N1CC(c2nc(C3CC3)no2)C1 | i
O=C(CSc1nnc(N2CCN(C(=O)COc3ccc(F)cc3)CC2)s1)Nc1ccccc1 | i
O=C(Cn1cccn1)N1CCC(Oc2ncccc2Cl)CC1 | i
COC(=O)c1ccc(CSc2nnc(NC(=O)c3cn(C)nc3OC)s2)cc1 | i
COc1ccc(CC(=O)NCc2sc3nc(-c4ccc(F)cc4)cn3c2C)cc1 | i
O=S(=O)(NCc1ccccc1)C1CC1 | i
O=C(COc1ccccc1F)Nc1nnc(-c2ccsc2)o1 | i
CCCNC(=O)Cn1nc2c(c1NC(=O)COc1ccc(Cl)cc1Cl)CSC2 | i
COc1ccc(C2C(=C(O)c3ccc(Cl)cc3)C(=O)C(=O)N2c2ccccn2)cc1 (centres undefined) | i
Cc1ccnc(NC(=O)CCCn2cnc(-c3ccccc3)cc2=O)c1 | i
CCCN1C(=O)CCc2cc(NC(=O)c3ccc(OC(C)C)cc3)ccc21 | i
CCCCS(=O)(=O)Nc1ccc(-n2nnc(C(=O)NC3CCCC3)n2)cc1 | i
Cc1cccc2[nH]c(SCC(=O)N3CCCCC3)nc12 | i
Cc1ccccc1N1C(=O)N(c2cccc(Cl)c2)C2CS(=O)(=O)CC21 (centres undefined) | i
CC(C)(C)OC(=O)c1c(N)n(CCO)c2nc3ccccc3nc12 | i
CSc1ccccc1C(=O)N(CC1CCCO1)c1nc2cc(C)cc(C)c2s1 (centres undefined) | i
CCn1cnc2c(-c3ccccc3)cn(CC(=O)Nc3cccc(C(C)=O)c3)c2c1=O | i
O=C(CSc1nnc(-c2cccnc2)o1)Nc1ccccc1 | i
Cc1nc(C)c(-c2ccc(=O)n(CCNC(=O)c3cc4ccccc4oc3=O)n2)s1 | i
CCOc1ccc(-n2nnnc2SCC(=O)Nc2c(C)cccc2C(=O)O)cc1 | i
CCOc1ccc(CCNc2nccn(-c3ccc(C)c(C)c3)c2=O)cc1OCC | i
COc1ccccc1CCN1COc2ccc3c(=O)c(-c4ccccc4)coc3c2C1 | i
COc1cc(OC)cc(N2C(=O)C3N=NN(c4ccc(Cl)cc4)C3C2=O)c1 (centres undefined) | i
CC(C)c1ccc(OCC(=O)Nc2ccc(-n3nnc(C(N)=O)n3)cc2)cc1 | i
C/C=C/Cn1c(=O)c2c(nc3n(CCN4CCOCC4)c(C)c(C)n23)n(C)c1=O | i
O=C(NCc1csc(-c2ccccc2)n1)C1CCCN(c2ccc(-c3ccco3)nn2)C1 (centres undefined) | i
Cn1c(=O)c2c(nc3n(CC(N)=O)c(-c4ccccc4)cn23)n(C)c1=O | i

Screening data: PubChem, Vanderbilt University

An excerpt; the hit share may differ from the screen's.
